Source: PubChem BioAssay (ICCB-Longwood Screening Facility, Harvard Medical School)
MenB inh: inhibitors of Mycobacterium tuberculosis MenB enzyme; P9WNP5; actives 0.43% (n = 100,000); AID 540299; inhibition, %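 (about 12 µg/mL by stock and volumes)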; MenB enzyme assay, absorbance read-out; some hits fall short of the stated cut;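 active = mean of two replicates above 30%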;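 note: 0% = no compound and 100% = wells with inactive enzyme; the first replicate is given; strong numbers were not always called active; inactives centre near -10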
Target sequence (P9WNP5 whole entry, looked up): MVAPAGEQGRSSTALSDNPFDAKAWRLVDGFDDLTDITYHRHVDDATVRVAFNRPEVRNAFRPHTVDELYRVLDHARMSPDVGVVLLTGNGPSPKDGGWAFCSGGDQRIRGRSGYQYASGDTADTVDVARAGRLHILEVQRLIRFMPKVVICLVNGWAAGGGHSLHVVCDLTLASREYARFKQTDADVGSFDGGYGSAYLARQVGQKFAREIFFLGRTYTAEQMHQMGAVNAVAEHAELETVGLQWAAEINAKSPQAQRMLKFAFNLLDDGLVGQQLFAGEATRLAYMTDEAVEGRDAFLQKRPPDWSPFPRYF
MbtI inh: MbtI salicylate synthase inhibition; inhibition, %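 (about 17 µg/mL by stock and volumes)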; actives 0.89% (n = 100,000); AID 493033; purified MbtI enzyme, fluorescence intensity read-out;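 active = above 50% in both replicates, above 80% if mildly self-fluorescent; inactive = the rest, strongly fluorescent compounds included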;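 note: 0% = mean of negative and 100% = mean of positive controls; one replicate is shown; some compounds called inactive have numbers as strong as hits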
Target sequence (P9WFX0 whole entry, looked up): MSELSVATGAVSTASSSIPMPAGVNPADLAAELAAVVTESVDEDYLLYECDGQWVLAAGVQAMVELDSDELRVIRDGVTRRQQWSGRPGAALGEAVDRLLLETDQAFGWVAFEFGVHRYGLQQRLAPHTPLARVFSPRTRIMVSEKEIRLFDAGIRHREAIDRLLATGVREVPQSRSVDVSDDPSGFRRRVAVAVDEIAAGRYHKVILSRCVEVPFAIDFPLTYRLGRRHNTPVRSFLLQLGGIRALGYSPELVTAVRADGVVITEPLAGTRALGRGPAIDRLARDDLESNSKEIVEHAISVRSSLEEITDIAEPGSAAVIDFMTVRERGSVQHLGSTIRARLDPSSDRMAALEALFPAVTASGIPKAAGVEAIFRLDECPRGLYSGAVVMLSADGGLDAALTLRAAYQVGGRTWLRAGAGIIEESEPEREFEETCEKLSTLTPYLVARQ
Polio RdRp inh: poliovirus RNA polymerase inhibition. poliovirus polymerase elongation, fluorescence polarization; stronger effect = lower value. P03300. actives 0.66% (n = 150,000). % elongation, % (compound at 16.7 µg/mL); in the data active = % elongation below about 90%; note: some results filed as inactive read as strong as hits
Polio RdRp inh intensity: also measured in Polio RdRp inh; calls as there; % elongation; measured here: total intensity read-out; formula for this scale not given here;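 total fluorescence in place of polarization; lower means less elongation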
Starred values were filed as active, the others as inactive; x = no result given; & = joins results of further samples.

Start of the data: the first four records, ahead of the listing:
The line under a structure holds: MenB inh	MbtI inh	Polio RdRp inh	Polio RdRp inh intensity
(1) CC(C)=CC(=O)Nc1nnc(-c2ccccc2)s1
 : -49	52	101	99
(2) CC1C/C(=N\O)C(C(C)C)C/C1=N/O (configuration not stated)
 : x	-10	99	97
(3) CC(C)/C=C(/C(=O)c1ccc(Cl)cc1Cl)n1cncn1
 : 11	23	101	102
(4) NC1=NC(c2ccncc2)n2c(nc3ccccc32)N1 (configuration not stated)
 : 2	2	103	101

Results, from the first entry:
The line under a structure holds: MenB inh	MbtI inh	Polio RdRp inh	Polio RdRp inh intensity
(1) CC(C)=CC(=O)Nc1nnc(-c2ccccc2)s1
 : -49	52	101	99
(2) CC1C/C(=N\O)C(C(C)C)C/C1=N/O (configuration not stated)
 : x	-10	99	97
(3) CC(C)/C=C(/C(=O)c1ccc(Cl)cc1Cl)n1cncn1
 : 11	23	101	102
(4) NC1=NC(c2ccncc2)n2c(nc3ccccc32)N1 (configuration not stated)
 : 2	2	103	101
(5) O=C(COc1ccc2c(c1)OCO2)NC1CCCc2ccccc21 (configuration not stated)
 : -2	0	101	99
(6) C=CCn1c(C)cc(C(=O)COC(=O)Cc2sc(N)nc2-c2ccc(C)cc2)c1C
 : -30	-5	108	111
(7) CCn1nc(C(=O)Nc2sccc2C(N)=O)c2ccccc2c1=O
 : -38	-7	107	114
(8) Cc1ccc(S(=O)(=O)Nc2c[nH]c(=O)[nH]c2=O)cc1
 : -22	x	102	110
(9) Cc1ccc2c(c1)C1CN(C)CCC1N2C(=O)c1ccco1 (configuration not stated)
 : -34	12	103	95
(10) CCSc1nnc(-c2ccc(N(CC)CC)cc2)o1
 : -7	-98	100	99
(11) CC1C(c2ccccc2)=[N+]([O-])C2(CCCC2)N1O (configuration not stated)
 : -18	0	104	106
(12) NC(=O)C1CCN(C(=O)COc2ccc3ccccc3c2)CC1
 : 3	17	97	99
(13) COc1ccc2nc(SCC(=O)c3ccc(O)c(O)c3)[nH]c2c1
 : 1	70*	100	102
(14) CCC1CCCCN1C(=O)c1cccs1 (configuration not stated)
 : -24	-11	99	102
(15) Cc1cc(C)nc(NNC(=S)NCc2ccc3c(c2)OCO3)n1
 : -16	75*	98	102

Looked up by structure from the list above, 7 records:
The line under a structure holds: MenB inh	MbtI inh	Polio RdRp inh	Polio RdRp inh intensity
(4) NC1=NC(c2ccncc2)n2c(nc3ccccc32)N1 (configuration not stated)
 : 2	2	103	101
(14) CCC1CCCCN1C(=O)c1cccs1 (configuration not stated)
 : -24	-11	99	102
(2) CC1C/C(=N\O)C(C(C)C)C/C1=N/O (configuration not stated)
 : x	-10	99	97
(5) O=C(COc1ccc2c(c1)OCO2)NC1CCCc2ccccc21 (configuration not stated)
 : -2	0	101	99
(6) C=CCn1c(C)cc(C(=O)COC(=O)Cc2sc(N)nc2-c2ccc(C)cc2)c1C
 : -30	-5	108	111
(8) Cc1ccc(S(=O)(=O)Nc2c[nH]c(=O)[nH]c2=O)cc1
 : -22	x	102	110
(7) CCn1nc(C(=O)Nc2sccc2C(N)=O)c2ccccc2c1=O
 : -38	-7	107	114

Additional results follow.
The line under a structure holds: MenB inh	MbtI inh	Polio RdRp inh	Polio RdRp inh intensity
(16) CNC(=O)Cn1ncc2c3ccccc3n(Cc3cccc(Cl)c3)c2c1=O
 : -15	5	122	148
(17) O=c1c2cccc3c2c(nn1CN1CCCCC1)-c1ccccc1-3
 : -10	16	101	96
(18) O=C1CCCCc2ccccc21
 : 9	8	104	103
(19) CC1CCCN(C(=O)c2ccc3c(=O)n4nc(Nc5ccccc5)sc4nc3c2)C1 (configuration not stated)
 : -16	-122	101	101
(20) N#CC1(C#N)C(c2ccc(F)cc2)C(C(=O)c2ccccc2)C2C=Cc3ccccc3N21 (configuration not stated)
 : -9	x	108	132
(21) C#CCSc1nnc(-c2ccccc2)o1
 : -5	-4	103	102
(22) COC(=O)/C(C#N)=C1\C=Cc2ccccc2N1
 : x	-5	101	103
(23) Nc1ccc2oc(Cc3ccc(Cl)cc3)nc2c1
 : -45	89	89&103	103&105
(24) O=S(=O)(NCC1CCCO1)c1ccc(S(=O)(=O)N2CCN(c3ncccn3)CC2)cc1 (configuration not stated)
 : -16	29	107	101
(25) N#CC1=C(SCc2ccccc2)SCNC1=O
 : 29	9	100	100
(26) Nc1cc(C(F)(F)F)ccc1-n1cnc2ccccc21
 : x	90*	102	102
(27) Cc1cc(C(=O)Nc2ccc(C)c(F)c2)n[nH]1
 : -4	38	99	102
(28) Cc1cc(C)c(NC(=O)c2cc(S(=O)(=O)N3CCc4ccccc43)ccc2F)c(C)c1
 : -18	3	100	104
(29) CNC(=O)CSc1nnc(-c2ccccc2F)n1CCc1ccccc1
 : x	-4	103	103
(30) O=C(CN1C(=O)c2cccc3cccc1c23)N1CCCC1
 : -20	7	100	101
(31) CC1=C(C(=O)Nc2ccc(F)cc2)SCCO1
 : -12	x	104	102
(32) CC1CC1C(=O)OCC(=O)Nc1ccc(Oc2ccccc2)cc1 (configuration not stated)
 : x	-15	103	107
(33) CCn1c2ccccc2c2nnc(SCC(=O)NCCc3ccc(OC)c(OC)c3)nc21
 : 11	6	103	95
(34) O=C(CCc1nnc2ccc(N3CCCCC3)nn12)NCCN1CCOCC1
 : 4	-2	103	104
(35) COc1ccc2nc3c(nc2c1)C(=O)c1ccccc1C3=O
 : -21	4	99	104
(36) CCOC(=O)c1[nH]c(C)c(C(=O)NC2CCCCCC2)c1C
 : 10	-4	98	102
(37) CCOC(=O)CSc1nnc(CSc2nc3ccccc3c(=O)[nH]2)n1-c1ccccc1
 : -13	3	102	103
(38) Cc1noc(C)c1C(=O)NCC1COc2ccccc2O1 (configuration not stated)
 : -17	12	102	98
(39) COc1cc(OC)c(C(=O)NC2CC3CCC2(C)C3(C)C)cc1OC (configuration not stated)
 : 11	-56	103	96
(40) CC(C)CNC(=O)c1ccc(COc2ccc3ccccc3c2)o1
 : -13	x	99	107
(41) CC1CCc2c(sc3nc(COC(=O)C4=NNC(=O)CC4)[nH]c(=O)c23)C1 (configuration not stated)
 : -6	6	102	106
(42) COc1cccc2c1OC1(C)NC(=S)NC2C1C(=O)N(C)C (configuration not stated)
 : -6	-2	100	104
(43) Cc1cc(C)c2nc(C(F)(F)F)nc(N3CC(C)OC(C)C3)c2c1 (configuration not stated)
 : -31	7	100	102
(44) COc1ccc(CCNC(=O)c2nnn(-c3cccc(C)c3)c2N)cc1OC
 : -8	-7	102	105
(45) CC(=O)Nc1cc(C(N)=O)cc(C(N)=O)c1
 : -37	-1	100	100
(46) Cc1nn(C)c(C)c1NC(=O)c1ccc(Cl)cc1
 : -25	-9	92	121
(47) COc1ccc(S(=O)(=O)C2CS(=O)(=O)CC2O)cc1 (configuration not stated)
 : -7	-14	109	115
(48) Cc1ccc2[nH]c(=O)c(CNCCCO)cc2c1
 : -12	30	101	102
(49) Cc1ccc2[nH]c(=O)c(CN(C)C(=O)c3cccc(Cl)c3)cc2c1
 : -16	0	102	98
(50) O=C(CCN1C(=O)C2C3C=CC(C3)C2C1=O)Oc1cccc2cccnc12 (configuration not stated)
 : 2	-26	101	104
(51) Cc1ccc(/C=N/N2C(=O)c3ccccc3C2=O)o1
 : -17	7	103	106
(52) CCCNC(=O)c1nnc(Cc2ccccc2OC)o1
 : -3	-2	102	101
(53) C=CCNc1oc(COc2ccccc2F)nc1C#N
 : -16	-3	106	108
(54) CC(C)CNC(=O)CSc1nnc(-c2ccc(Cl)cc2)n1N
 : -12	-34	102	105
(55) O=C1C2CC=CCC2C(=O)N1Nc1ccccc1 (configuration not stated)
 : -10	-3	101	101
(56) CCOC(=O)c1cc(C)n(-c2ccc(C(=O)N3CCc4ccccc43)cc2)c1C
 : -6	-15	104	107
(57) CC(C)(C)c1cc2nc(C(F)(F)F)cc(N3CCN(C(=O)c4ccccc4)CC3)n2n1
 : 7	-74	100	99
(58) Cc1c(C(=O)OCC(=O)NC2(C#N)CCCCC2)sc2nc3n(c(=O)c12)CCC3
 : -14	-77	111	119
(59) Cc1nc(/N=C(/N)Nc2cccc(Cl)c2C)[nH]c(=O)c1Cc1ccccc1
 : 8	5	101	100
(60) CC(C)c1nc2ccccc2n1C(C)c1ccccc1 (configuration not stated)
 : -22	-2	100	100

(listing goes on)
No. | SMILES | MenB inh | MbtI inh | Polio RdRp inh | Polio RdRp inh intensity
61 | O=C(Nc1ccc(OCc2ccccc2)cc1)Nc1cccnc1 | -34 | 17 | 102 | 101
62 | O=C1N(c2ccccc2)C2CS(=O)(=O)CC2N1c1ccccc1 (configuration not stated) | -31 | 4 | 104 | 99
63 | CC1(C)CC(=O)N(CC(=O)N2CCN(c3cccc(C(F)(F)F)c3)CC2)c2ccccc2S1 | -14 | -2 | 104 | 103
64 | C/C(=C/c1ccccc1)C(=O)Nc1ccc2nc3n(c(=O)c2c1)CCCCC3 | -31 | -2 | 103 | 97
65 | CSc1scc(-c2cc(Cl)cc(Cl)c2)c1C#N | -2 | -3 | 108 | 112
66 | COC(=O)N/N=C/c1c[nH]c2ccccc12 | 14 | 25 | 103 | 101
67 | Cc1oc2nc[nH]c(=O)c2c1C(=O)Nc1cccc(C(F)(F)F)c1 | 7 | -4 | 113 | 127
68 | CCc1ccc(NC(=O)CN2C(=O)CCc3ccccc32)cc1 | -1 | 3 | 100 | 107
69 | CC(C)(C)NC(=O)CC(c1ccccc1)c1ccccc1 | 3 | x | 101 | 98
70 | Cc1ccc(N2C(=O)CSC2=S)c(C)c1 | -41 | -31 | 101 | 102
71 | Cc1ccc(-c2noc(CCCCCN=Cc3c(O)[nH]c(=O)[nH]c3=O)n2)cc1 | -36 | 2 | 118 | 119
72 | c1ccc(-c2nnn3c2nc(N2CCCCC2)c2ccccc23)cc1 | 2 | -2 | 100 | 105
73 | CCOc1ccc(C(=O)Nc2nc3cc4c(cc3s2)OCO4)cc1 | 9 | 93 | 97 | 103
74 | Cc1cc(NC(=O)C2CCC2)ccc1Br | x | 3 | 101 | 99
75 | COCc1nc2ccccc2n1C(C)c1ccccc1 (configuration not stated) | -14 | 2 | 102 | 103
76 | O=C(/C=C/C(=O)N1CCOCC1)Nc1nccs1 | -26 | -2 | 100 | 104
77 | Cc1cc(C)nc(-n2nc(C)c(C3=CCC(C(C)(C)C)CC3)c2N)n1 (configuration not stated) | x | -4 | 100 | 103
78 | O=C(O)c1cccc(S(=O)(=O)Nc2ccc(N3CCCCC3)cc2)c1 | -47 | -5 | 102 | 105
79 | Cc1cccc(OCc2cc(=O)n3nc(-c4ccco4)sc3n2)c1C | -41 | 48 | 98 | 103
80 | N#CCN(CC#N)C(=O)C(Sc1ccccc1)c1ccccc1 (configuration not stated) | -14 | x | 102 | 102
81 | NNc1ccc2nncn2n1 | -51 | -2 | 101 | 99
82 | O=C(O)CSCC(=O)Nc1ccc(Cl)cc1 | 7 | -5 | 102 | 104
83 | O=C(O)Cc1cc(=O)[nH]c(=O)[nH]1 | 3 | -4 | 98 | 98
84 | Cc1ccc(Cl)cc1NC(=O)COC(=O)C1CCCC1 | x | -9 | 101 | 106
85 | C=CCN1C(=O)c2ccc(C(=O)OCC(=O)c3cc4ccccc4o3)cc2C1=O | 8 | 3 | 106 | 114
86 | CCOC(=O)CCCc1ccc(/C=C/C(=O)O)s1 | 6 | x | 100 | 104
87 | Cc1cc(C)cc(NC(=O)CS(=O)(=O)c2cccc3nsnc23)c1 | -28 | -4 | 102 | 104
88 | CN(Cc1ccccc1F)c1ccc(S(=O)(=O)N2CCCC2)cn1 | 5 | -246 | 97 | 104
89 | COC1=CC(=O)OC12CCCCC2 | -22 | x | 100 | 111
90 | N#Cc1cc(C(=O)c2cc(Cl)ccc2O)c[nH]c1=O | -16 | 8 | 72 | 226

Screen by screen, as entered above:
Compounds 80 to 84 in Polio RdRp inh: 102, 101, 102, 98, 101

(continued)
No. | SMILES | MenB inh | MbtI inh | Polio RdRp inh | Polio RdRp inh intensity
91 | COc1ccc(CC(=O)O)c(C(=O)O)c1 | -6 | 12 | 101 | 107
92 | C=Cc1cccc(NC(=O)c2cccs2)c1 | -1 | 26 | 98 | 104
93 | CC1CC(C)(C)Nc2ccc(OC(=O)c3ccccc3)cc21 (configuration not stated) | x | -14 | 103 | 108
94 | Cn1c(=O)n(C)c2cc(/C=C(/C#N)C(=O)NCc3ccco3)ccc21 | -17 | -20 | 102 | 103
95 | CCCC(=O)N(Cc1ccccc1)C(C)C | -22 | 1 | 99 | 101

Some of these compounds in order of heavy-atom count, smallest number first:
No. | SMILES | MenB inh | MbtI inh | Polio RdRp inh | Polio RdRp inh intensity
74 | Cc1cc(NC(=O)C2CCC2)ccc1Br | x | 3 | 101 | 99
9 | Cc1ccc2c(c1)C1CN(C)CCC1N2C(=O)c1ccco1 (configuration not stated) | -34 | 12 | 103 | 95
77 | Cc1cc(C)nc(-n2nc(C)c(C3=CCC(C(C)(C)C)CC3)c2N)n1 (configuration not stated) | x | -4 | 100 | 103

Rows were taken by chance; any-hit rate near 1.7%.
